UUG fidelity – alters start codon recognition fidelity in yeast; AID 602363; 350,000 compounds, 0.13% hits; S. cerevisiae UUG-firefly luciferase reporter, luminescence/redox ratio; activity score, % at 18.7 µM;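 active means replicate mean at a twofold rise or more, about +100% in these data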;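 further: firefly luciferase made from a UUG start codon reports start codon fidelity; reporter light over untreated wells divided by growth signal over untreated wells; some hits fall short of that in this replicate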
MT1-MMP act inh – blocks activation of human MT1-MMP. 360,000 compounds, 0.061% hits. HT1080 RFP-PRO-GFP cells, GFP/RFP ratio fluorescence, overnight; percent of plate control window, DMSO zero. P50281. GFP/RFP ratio change, % at 20 µM. AID 651647;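 active means GFP/RFP ratio change of at least 30% with cell ATP level not reduced by more than half and red fluorescence within 50% of control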; further: strong numbers were not always called active
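Test system: HT1080 RFP-PRO-GFP cells; Benchmarks: DMSO and RFP-L50D-GFP cell wells; Timing: cells overnight before dosing, compound overnight, 37 °C, 5% CO2; Compound: one 20 µM compound dose with 1% DMSO; Read-out: GFP/RFP fluorescence ratio.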
PABP polyA inh – blocks human PABP binding to poly(A) RNA; P11940; fluorescence polarization; inhibition, % at 35 µM; 290,000 compounds, 1% hits; AID 2014;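 active means 50% or more with normal probe brightness, or confirmed in later tests; inconclusive means above 50% with abnormal brightness, or retests that disagree; inactive means below 50% or failed in later tests; about a fifth of its hits are not listed in these tables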;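 further: calls also rest on retests at 20 µM and on dose response follow-up; controls were probe without protein and protein plus probe with vehicle; some compounds called inactive have numbers as strong as hits; many hits fall short of the cut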
HIV Env fusion – HIV envelope-mediated fusion inhibition; inhibition, % at 12.3 µM; HeLa-JRFL Env/CEM21 cell fusion, luciferase; 360,000 compounds, 1.1% hits;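 active means mean replicate inhibition score of at least 50 and every replicate individually at or above 50; inconclusive means only one of the two criteria met; inactive means mean below 50 and not all replicates reaching 50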;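 further: 0% = plate neutral controls and 100% = maraviroc near 300 nM; one replicate is shown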
Rce1 inhib – inhibitors of yeast Ras-converting enzyme | calls only | 290,000 compounds, 0.27% hits | AID 2563 | yeast membranes, quenched prenylated peptide cleavage fluorescence;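 active means fall in fluorescence gain of 50% or more versus controls, with final raw signal at or below 3038400; inconclusive means same 50% fall but final raw signal above 3038400; inactive means fall in fluorescence gain under 50%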;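 further: plate controls were neutral control wells for no effect and wells lacking membranes for full effect; tested at 10 µM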
Target sequence (Q03530 whole entry, looked up): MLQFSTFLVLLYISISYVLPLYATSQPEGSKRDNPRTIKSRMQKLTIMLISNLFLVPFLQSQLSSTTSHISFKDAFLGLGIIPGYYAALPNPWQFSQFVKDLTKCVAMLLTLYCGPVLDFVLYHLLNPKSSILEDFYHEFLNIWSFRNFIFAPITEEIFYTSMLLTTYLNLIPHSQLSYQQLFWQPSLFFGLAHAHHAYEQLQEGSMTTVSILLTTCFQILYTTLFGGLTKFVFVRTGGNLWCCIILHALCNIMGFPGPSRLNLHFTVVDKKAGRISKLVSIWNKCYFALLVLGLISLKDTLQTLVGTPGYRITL
eIF4H FP inh – inhibitors of RNA binding by human eIF4H | Q15056 | eIF4H fluorescence polarization binding assay | inhibition, % at 35 µM | 290,000 compounds, 0.94% hits | AID 2012;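 active means 50% or more with normal probe brightness, or confirmed in later tests; inconclusive means above 50% with abnormal brightness, or retests that disagree; inactive means below 50% or failed in later tests; about a fifth of its hits are not listed in these tables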;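 further: calls also rest on retests at 20 µM and on dose response follow-up; 0% = protein and probe with vehicle and 100% = probe without protein; strong numbers were not always called active; many hits fall short of the cut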
CSC inhib – blocks cancer stem cells; cancer stem cell-like cells viability, luminescence; inhibition, % at 7.5 µM; AID 2717; 300,000 compounds, 1.1% hits;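 active means mean at 75% or more and at least half the replicates too; inconclusive means mean and replicates disagree; tested in HMLE shEcad cells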;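 further: 0% = median of negative and 100% = median of positive control wells; the first replicate is given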
eIF4H FP inh retest – second read-out of eIF4H FP inh, no call of its own (marks repeat the call); inhibition, %; compound at 20 µM; confirmation average;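 mean of two retest wells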
PABP polyA inh retest – recorded beside PABP polyA inh, whose call it bears; inhibition, %; compound at 20 µM; confirmation repeats;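 mean of two retest wells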
MT1-MMP act inh RFP – also measured in MT1-MMP act inh; calls as there; RFP signal change, %; measured here: RFP expression control read;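 0 = vehicle wells; hits needed this value within 50% of zero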
An asterisk follows results filed as active; i = inactive; ? = inconclusive; / = no result given; & = joins results of further samples.

SMILES	UUG fidelity	MT1-MMP act inh	MT1-MMP act inh RFP	PABP polyA inh	HIV Env fusion	Rce1 inhib	eIF4H FP inh	CSC inhib	others
CC(=O)Nc1cc(-c2cccc(C(=O)NCCO)c2)cn2c(-c3cccc(C(F)(F)F)c3)cnc12	-22	-2	-3	/	9	/	/	/
O=C(CCc1ccccc1)Nc1cccc(NC(=O)CCc2ccccc2)c1	-2	6	-2	-6	/	i	-1	-1
COc1ccc(NC(=O)C[C@H]2C(=O)N(C3CCCCC3)C[C@@H]2CSC)cc1	8	0	-1	/	-21	/	/	/
N/C(=N\NS(=O)(=O)c1ccccc1Cl)c1ccccn1	/	1	2	/	0	i	/	-6
CCOc1ccc(C(=O)CCN2CCCCC2)cc1	/	-4	0	2	/	i	2	43
COC(Cc1n[nH]c(=S)n1-c1ccc(Cl)cc1)OC	-22	3	6	-2	3	i	-2	-3
COc1ccc(C(C)(C)C)cc1NC(=O)CCc1c(C)noc1C	-2	-2	2	/	6	/	/	/
C/C(=N\Nc1cccc(Cl)c1)c1ccc(-n2ccnc2)cc1	/	2	4	10	-20	/	-7	35
CCCn1c(CNC(=O)c2ccccc2)nc2ccccc21	-17	5	1	-4	/	i	-2	-14
CC(C)(C)c1ccc(C(O)c2ncc(-c3ccccc3)[nH]2)cc1 (stereo unspecified)	-11	4	1	/	-32	/	/	/
CN1CCN(c2ccccc2/C=C2/C(=O)Nc3ccccc32)CC1	-1	-8	-4	10	11	i	25	/
O=C(C1CCC1)N1CCc2cc(S(=O)(=O)NCc3ccco3)ccc21	-4	4	0	-12	/	i	-11	-14
O=C(CNc1cccc(Cl)c1)c1ccc(Br)cc1	-7	0	1	6	-13	i	7	-5
CC1CCCCN1C(=O)CSc1nc2cc3c(cc2c(=O)n1Cc1ccc2c(c1)OCO2)OCO3 (stereo unspecified)	-11	-4	-7	-11	-94	i	-2	-3
CCCCCC#CCC#CCC#CCC#CCCCC(=O)O	1	/	/	10	/	i	85*	/	eIF4H FP inh retest=62*;PABP polyA inh retest=37
CCSC(=Nc1ccccc1)N1CCOCC1	-10	0	5	/	8	i	/	-12
Cc1nccn1CCCN1C(=O)CNC1=S	/	-6	2	2	4	/	3	1
O=C(COC(=O)c1ccc2c(c1)OCO2)Nc1nc(-c2ccccc2)cs1	/	4	2	61*	2	i	2	/
O=C(COc1ncnc2scc(-c3ccccc3)c12)NC1CCCc2ccccc21 (stereo unspecified)	-31	-3	2	-4	-10	i	-2	0
O=S(=O)(Nc1cc(S(=O)(=O)N2CCOCC2)ccc1N1CCCC1)c1cccs1	-4	-2	-2	3	-20	i	-6	-4
Cc1nnc(SCC(=O)NC(=O)NCc2ccco2)s1	/	0	3	-1	8	i	-3	0
Cc1nnc(SCC(=O)NC2CCS(=O)(=O)C2)n1-c1ccccc1 (stereo unspecified)	-42	-3	2	-12	6	i	-6	-7
COC(=O)COc1ccc2oc(=O)cc(-c3cc4cccc(OC)c4o3)c2c1	-13	-2	1	0	12	i	19	-5
c1cnc2nc(CSc3ncn[nH]3)cn2c1	/	-3	4	?	-4	i	-1	-8
COc1ccc(NC(=O)CN2C(=O)NC3(CC(C)CC(C)(C)C3)C2=O)cc1S(=O)(=O)N1CCCCC1 (stereo unspecified)	19	2	-3	/	5	i	/	4
CCCNC(=O)N1CCCC(C(=O)c2cccc(Cl)c2)C1 (stereo unspecified)	-8	-2	-2	-3	28	i	-1	-12
c1cc(-c2cn(C[C@H]3CC[C@@H]([C@@H]4CC[C@H](Cn5cc(-c6ccsc6)nn5)O4)O3)nn2)cs1	-9	7	-1	0	-26	i	17	-23
COc1ccc(N(CC(=O)NCc2ccc(F)cc2)C(=O)Cn2nnc(-c3ccc(C)o3)n2)cc1OC	-3	-6	-4	-11	8	/	3	3
CN(Cc1ccccc1)C(=O)Nc1ccc(Cl)cc1	0	-1	-5	/	-4	i	/	-1
CNc1nc(-c2c[nH]c3ccccc23)cs1	-24	12	5	33	/	i	5	1
COc1ccccc1NS(=O)(=O)c1ccc2oc(SCc3ccc(C#N)cc3)nc2c1	/	-9	-25	10	58*	i	-10	28
CCOc1ncccc1C(=O)Nc1nc(C(C)(C)C)cs1	-9	/	/	3	-4	i	-1	11
COc1ccccc1CC(=O)Nc1ccc(S(=O)(=O)N2CCCCC2)cc1	/	0	-1	-5	9	i	-3	-6
Cc1ccc(/C=C2/SC(=S)N(CCC(=O)NCCCN3CCOCC3)C2=O)cc1	-10	-4	-3	-2	-18	i	-15	35
COc1cc(Cl)ccc1OCc1cc(C(=O)NC2CCc3ccccc32)no1 (stereo unspecified)	-16	-3	0	-19	-11	i	-10	4
N#C/C(=C\c1ccco1)c1nc2ccccc2s1	/	-4	10	-8	i	i	?	2
COc1cccc(C(=O)NC(=S)Nn2cnnc2)c1OC	/	0	1	8	-4	i	2	-10
CCC(=O)Nc1ccc(N2CCN(Cc3ccccc3F)CC2)cc1	-11	4	-2	-6	-53	i	-6	4
CCn1c(=O)c(C(=O)Nc2cccnc2)c(O)c2ccccc21	-13	-5	5	/	2	/	/	/
Cc1cc(NC(=O)CSCC(=O)OCC(=O)c2cccc(Br)c2)no1	-13	-2	3	/	7	/	/	/
CN1C(=O)c2ccc(C(=O)NC3CCCCC3)cc2C1=O	-19	5	8	-10	/	/	14	20
CC1CCCCN1S(=O)(=O)c1ccc(NC(=O)c2cccs2)cc1 (stereo unspecified)	19	-1	-10	-6	/	i	2	6
O=C(CN1C(=O)NC2(CCCC2)C1=O)Nc1ccc(S(=O)(=O)N2CCOCC2)cc1	-14	-1	3	21	-5	i	-9	5
NC(N)=N/N=C/c1ccc(OCc2ccc(Cl)cc2)cc1	/	-2	-15	-10	/	i	-2	/
O=C(Nc1ccc(Br)c(Br)c1)C1CCCO1 (stereo unspecified)	1	1	-3	/	-8	/	/	-16
O=C(N/N=C/c1c(O)n(Cc2ccccc2)c(=O)c2ccccc12)c1cccnc1	/	-31	-3	3	-1	i	13	16
COc1ccc(C(C)=O)cc1CSC(=N)N	/	0	1	?	-18	i	-12	-5
CCCCNC(=O)CCc1c(C)nc2c(c(C)nn2-c2ccccc2)c1C	-6	0	-5	2	31	i	8	4
C=CCn1c(N)cc(=O)nc1SC(C)C(=O)Nc1cccc2ccccc12 (stereo unspecified)	-7	-2	-3	8	/	/	19	/
Cn1c(=O)c2c(=O)cc(NNC(=O)C(C)(C)C)[nH]c2n(C)c1=O	-15	0	0	-1	/	i	11	-4

Further entries follow:
SMILES	UUG fidelity	MT1-MMP act inh	MT1-MMP act inh RFP	PABP polyA inh	HIV Env fusion	Rce1 inhib	eIF4H FP inh	CSC inhib	others
Cc1ccc(N(CCC(=O)O)S(=O)(=O)c2cccc(C(F)(F)F)c2)cc1	-7	1	2	8	-5	i	13	1
COc1cccc(-c2nc(-c3ccc(NC(=O)c4cccs4)cc3)no2)c1	-15	1	-7	-7	/	i	-2	-1
Cc1ccc(OCCOCCNC(C)(C)C)c([N+](=O)[O-])c1	-1	3	4	-5	-47	i	1	/
Cc1cccc(OCc2nnc(SC(C)C(=O)Nc3ccc(N4CCOCC4)cc3)o2)c1 (stereo unspecified)	11	1	3	/	13	/	/	/
CCOC(=O)C(Cc1ccc(N)cc1)N1C(=O)c2ccccc2C1=O (stereo unspecified)	18	1	-9	-1	7	i	-5	-4
CCn1c(=O)c2cc(C(=O)NCCN3CCOCC3)sc2c2ccccc21	-21	22	6	-17	20	i	-22	-13
O=C(c1cccs1)N1CCN(Cc2cn[nH]c2-c2ccc(F)cc2F)CC1	-8	-4	-2	19	9	i	-8	/
O=C(CCc1nnc(COc2ccccc2)o1)NC1(c2ccccc2)CC1	-3	-2	0	-6	-8	i	-3	17
O=C(N/N=C/c1ccncc1)c1ccccc1OCc1ccc(Br)cc1	/	-2	-8	17	27	i	-15	49
O/N=C\c1cccn1-c1ccc(Br)cc1	-10	/	/	5	/	i	6	-7
CS(=O)(=O)N1CCC(C(=O)Nc2cccc(C(F)(F)F)c2)CC1	-4	-1	2	-2	/	i	-9	1
COc1ccc(C(C)=O)cc1COc1cc(C)c(Cl)c(C)c1	-14	-2	-3	3	29	i	5	1
O=C(O)CCC(=O)NCCn1c(-c2ccccc2)csc1=Nc1ccccc1	-13	0&-3	-4&0	1	-10	i	-4	-2
Nc1nc(SCC(=O)Nc2ccc(Cl)cn2)n[nH]1	/	2	1	10	-3	i	-5	-7
CC(C)(C)c1cc(C(=O)N/N=C/c2ccccc2O)n(-c2ccccc2)n1	/	-6	-7	-2	3	i	-7	117*
CCOC(=O)c1c(-c2ccccc2)nc2ccc(Cl)cn12	-8	3	2	18	-216	i	3	64
Cn1c(=O)cc2c3c(c(N4CCCCC4)ccc31)C(=O)c1ccccc1-2	17	26	58	?	0	i	?	22
COC(=O)c1cc(NC(=O)Nc2cccc(Cl)c2)ccc1Cl	-12	3	-15	4	/	i	8	37
CCn1c(SCC(=O)NCCc2ccccc2)nnc1-c1cccs1	-5	3	4	-1	-47	i	-12	10
O=C(N/N=C/c1ccncc1)C12CC3CC(CC(C3)C1)C2	/	-1	-1	-3	-2	i	-2	9
CCCCN1C(C)=CC(=C2C(=O)c3ccccc3C2=O)C=C1C	/	8	0	-4	-41	i	-11	-6
O=C(Cc1ccc(F)cc1)N1CCN(c2ccc([N+](=O)[O-])cc2)CC1	16	3	-15	3	9	i	-3	73
N#Cc1ccc(OCCOCCNC2CCCC2)cc1	/	1	7	4	-19	/	8	-35
CCc1ccccc1NC(=O)/C(C#N)=C\c1ccc(Sc2ccccc2)o1	/	-5	0	36	/	/	0	43
C[C@@H]1CN([C@@H](C)CO)C(=O)CCCn2nncc2CO[C@H]1CN(C)S(C)(=O)=O	-3&1	4	2	/	-21	/	/	/
CCCC(=O)NC(c1ccc(Cl)cc1Cl)c1ccc2cccnc2c1O (stereo unspecified)	-31	6	-10	0	-389	i	11	109*
CCCCN(C)C(=O)CC(NS(=O)(=O)c1ccc(NC(C)=O)cc1)C(C)C (stereo unspecified)	0	3	4	-1	8	i	2	-10
CC(=O)c1ccc(-n2c(C)c(C(C)=O)c3cc(O)ccc32)cc1	-29	-15	-14	9	38	i	1	-9
CCCn1c(SCC(N)=O)nnc1-c1ccco1	-13	-10	1	3	-23	i	-2	0
CCOC(=O)c1c(N)sn(-c2ccccc2)c1=S	-12	2	-1	-3	/	i	3	-5
COc1ccc(S(=O)(=O)NCC2CCC(C(=O)N3CCC4(CC3)OCCO4)CC2)cc1 (stereo unspecified)	-2	2	-2	10	/	i	1	/
CCOC1Cc2ccccc2N(C(N)=O)c2ccccc21 (stereo unspecified)	/	3	4	0	-78	i	-8	/
O=C(Nc1c2c(nn1-c1ccc(F)cc1)CS(=O)(=O)C2)c1ccc(Br)o1	-14	3	3	/	1	i	/	-22
CN(C)S(=O)(=O)c1ccc(C(=O)NCCSc2ccccc2)cc1	-12	4	2	10	/	i	2	-10
Clc1ccc(-n2ncc3c(NCc4cccs4)ncnc32)cc1	-14	/	/	/	-248	i	/	13
COCCCNc1nc(N)c([N+](=O)[O-])c(NC2CCCCC2)n1	-15	-3	-3	-3	-50	i	-8	-2

Screening data (PubChem BioAssay)
